Hsc70 ATP site: Hsc70 inhibitors, probe displacement, primary screen, biochemical, fluorescence polarization (AID 568); Hsc70 fluorescence polarization, probe displacement; higher % means a stronger effect; strong numbers were not always called active; displacement, % at 20 µM; hits with a dose series show IC50 in µM; 83,000 tested, under 10 active;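 active = displacement above 50% without optical interference and an IC50 on retest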;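 also: ATPase domain with a fluorescein-tagged ATP probe; 0% = vehicle and 100% = excess ADP; read after one hour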
WNV protease inh: blocks West Nile virus NS2B-NS3 protease activity | P06935 | WNV NS2B-NS3 protease, fluorogenic substrate Ex360/Em465; stronger effect = lower value | z-score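 (tested at a level between 10 and 100 µM)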 | actives 0.18% (n = 65,000) | AID 577;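 active = z-score at -3 or under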;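 also: score is relative to mean and spread of the compound wells of a plate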
Target sequence (P06935 1371-1501 limits assumed): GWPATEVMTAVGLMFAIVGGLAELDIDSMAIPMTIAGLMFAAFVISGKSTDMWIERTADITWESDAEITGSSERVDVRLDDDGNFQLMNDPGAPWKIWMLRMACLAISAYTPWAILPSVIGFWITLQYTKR
Target sequence (P06935 1502-1679 limits assumed): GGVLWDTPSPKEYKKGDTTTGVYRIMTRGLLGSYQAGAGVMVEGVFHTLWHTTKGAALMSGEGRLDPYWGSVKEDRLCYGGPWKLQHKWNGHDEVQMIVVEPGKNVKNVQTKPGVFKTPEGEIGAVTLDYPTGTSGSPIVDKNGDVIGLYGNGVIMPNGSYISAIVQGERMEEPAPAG
MT1-MMP reporter: inhibitors of MT1-MMP promoter transcription, cell-based, luciferase reporter, luminescence (AID 618). MT1-MMP promoter luciferase reporter cells, luminescence. calls from a first round at 10 µM; hits with a dose series show EC50 in µM. actives 0.62% (n = 87,000);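 active = over half of the reporter light lost at 10 µM or EC50 under 50 µM; inactive = the rest and hits that failed the dose series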;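 also: actives suppress MT1-MMP promoter-driven transcription so potencies describe inhibitors; HT1080 fibrosarcoma cells; overnight exposure; toxic or luciferase-blocking compounds were not removed from the actives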
Active calls of the source: *; i = inactive; nt = no result given.

| SMILES | Hsc70 ATP site | WNV protease inh | MT1-MMP reporter |
| --- | --- | --- | --- |
| COc1ccc(-c2nc3ccccc3n2OC(=O)N(C)C)cc1 | 0.4% | nt | i |
| O=C(COc1ccc(S(=O)(=O)N2CCCCC2)cc1)N1CCN(Cc2ccccc2)CC1 | -4.4% | 1.8 | i |
| CC(=O)c1ccc2c(c1)C1C(Cl)C(Sc3ccccc3[N+](=O)[O-])CC1C(c1ccccc1)N2 (configuration not stated) | 1.5% | nt | i |
| Cn1c(O)c(C=NCc2cccs2)c(=O)n(C)c1=O | 2.0% | -0.58 | i |
| OCCN(CC#CC(O)(c1ccccc1)C1CCCC1)CCO (configuration not stated) | 2.9% | 0.44 | i |
| CC(=O)NC(C)Cc1ccccc1 (configuration not stated) | -0.4% | nt | i |
| COc1ccc(CCn2c(O)c(C=NCc3cccnc3)c(=O)[nH]c2=O)cc1OC | -3.0% | 0.97 | i |
| O=c1[nH]c(=S)n(Cc2ccc(F)cc2)c(O)c1C=NCc1cccnc1 | 1.6% | nt | i |
| CCCCNc1ccncc1S(=O)(=O)NC(=O)NC(C)C | -0.3% | nt | i |
| CCC(=O)c1c(O)n(C2CCCCCC2)c(=O)[nH]c1=O | -5.8% | -0.19 | i |
| O=C(c1ccncc1)C12CN3CN(CN(C3)C1)C2 | -1.9% | -0.27 | i |
| COc1ccc(OC)c(CC(=O)O)c1 | -6.4% | -0.4 | i |
| O=c1[nH]c(=O)n(-c2cccc(Cl)c2)c(O)c1C=NCCCN1CCOCC1 | -1.9% | 0.55 | i |
| CCN(CC)c1ccc(N=Cc2c(O)n(CCC3=CCCCC3)c(=O)[nH]c2=O)cc1 | -97% | 0.48 | i |
| O=C1NC(=O)C2(Cc3ccccc3N3CCOCC32)C(=O)N1c1ccccc1 (configuration not stated) | -5.2% | nt | i |
| Cc1ccccc1-n1c(O)c(C=NCCN2CCOCC2)c(=O)[nH]c1=O | 2.2% | 0.14 | i |
| CCCCn1c(O)c(C(C)=NCC2CCCO2)c(=O)[nH]c1=O (configuration not stated) | 4.6% | nt | i |
| CC1(C)CC(=O)C(C=NCCN2CCN(C(=O)Cc3ccc(Cl)cc3)CC2)=C(O)C1 | -1.5% | -0.4 | i |
| CN(C)CCN=Cc1c(O)n(-c2cccc3ccccc23)c(=O)[nH]c1=O | -4.7% | 0.16 | i |
| O=C(Oc1c(Cl)cc(Cl)c2ccccc12)N1CCCCC1 | 2.3% | nt | i |
| CC(=O)OC1(c2ccccc2)CCN(C)C(C)C1C (configuration not stated) | -3.7% | nt | i |
| O=C1c2ccccc2C(=O)N1Cc1nc2ccccc2c(=O)n1-c1cccnc1 | 1.8% | 0.88 | i |
| CC(=O)OC1N=C(c2ccc(Cl)cc2)c2cc(Br)ccc2NC1=O (configuration not stated) | -1.6% | nt | i |
| Cc1ccc2cc3cc(C(=O)N4CCC5(CC4)OCCO5)oc3nc2c1 | -8.9% | -1.1 | i |
| COCCn1c(-c2ccccc2)cc(C(=O)O)c1C | -3.7% | nt | i |
| COc1ccc(CC2c3cc(OC)c(OC)cc3CCN2C)cc1OC (configuration not stated) | -0.6% | -0.33 | i |
| Cc1cccc(C)c1NC1=NCCCCS1 | -1.9% | -1 | i |
| COCCOC(=O)C1=C(C)OC(N)=C(C(=O)OC)C12C(=O)Nc1ccccc12 (configuration not stated) | -0.5% | 0.27 | i |
| N[C@@H](Cc1c[nH]c2ccccc12)c1nnc(SCc2ccccc2F)o1 | -1.9% | 0.39 | i |
| C=C1N2CCC(CC2)C1(O)c1ccc(C)c(C)c1 (configuration not stated) | 0.5% | nt | i |
| CC1=C(C(=O)N2CCC3(CC2)OCCO3)C2(CCC(C)CC2)OC1=O (configuration not stated) | 0.1% | 0.04 | i |
| CC(C)[C@@]1(NC(=O)[C@@H]2C[C@@H]3c4cccc5[nH]cc(c45)C[C@H]3N(C)C2)O[C@@]2(O)[C@@H]3CCCN3C(=O)[C@H](Cc3ccccc3)N2C1=O | 0.1% | -0.87 | i |
| O=c1[nH]c(=O)n(Cc2ccccc2)c(O)c1C=NCCCn1ccnc1 | -16% | 0.22 | i |
| CN(C)CCN=Cc1c(O)n(CCC2=CCCCC2)c(=O)[nH]c1=O | -1.4% | -0.78 | i |
| Cc1ccc(-n2c(O)c(C=NCCN3CCOCC3)c(=O)[nH]c2=O)cc1 | -5.0% | -0.26 | i |
| COc1cccc(CN2CCCCC2c2cccnc2)c1 (configuration not stated) | -5.4% | -0.16 | i |
| CCC(C)C12CN3CCN(CC(C)(C3)C1=O)C2 (configuration not stated) | -3.6% | nt | i |
| CP(C)(=O)CCC(=O)O | -5.6% | -0.35 | i |
| CCOC(=O)c1ccc(NC(=O)C2C3C=CC(O3)C2C(=O)O)cc1 (configuration not stated) | 2.3% | -0.78 | i |
| C=CCOc1ccc(CC2C(=O)N(C)C(=O)N(C)C2=O)cc1 | -3.9% | 0.99 | i |
| Cc1nc2c(-c3ccccc3)c(C)nn2c(C)c1CCC(=O)N1CCC2(CC1)OCCO2 | -5.6% | -1.2 | i |
| Cc1nc2c(c(C)nn2-c2ccccc2)c(C)c1CCC(=O)N1CCC2(CC1)OCCO2 | -1.7% | -1.1 | i |
| C=CCn1c(O)c(C(C)=NCCN2CCCCC2)c(=O)[nH]c1=O | 0.6% | nt | i |
| FC(F)(F)c1ccc2c(c1)N(CCCN1CCN(CCCl)CC1)c1ccccc1S2 | -0.2% | nt | i |
| C/C(CCc1c[nH]c2ccccc12)=N\O | 0.3% | -0.07 | i |
| CC1(C)C(c2ccccc2)=NC(c2cccnc2)N1O (configuration not stated) | -4.0% | 0.12 | i |
| CN(C)CC#CCOCCOCCC#N | 2.9% | -1.1 | i |
| COc1ccccc1N1C(=O)NC(=O)C2(Cc3cc(C)ccc3N(C)C2)C1=O (configuration not stated) | 3.8% | 0.44 | i |

Some of these compounds in order of number of heavy atoms, lowest first.
| SMILES | Hsc70 ATP site | WNV protease inh | MT1-MMP reporter |
| --- | --- | --- | --- |
| CN(C)CC#CCOCCOCCC#N | 2.9% | -1.1 | i |
| CCC(C)C12CN3CCN(CC(C)(C3)C1=O)C2 (configuration not stated) | -3.6% | nt | i |
| C=CCn1c(O)c(C(C)=NCCN2CCCCC2)c(=O)[nH]c1=O | 0.6% | nt | i |

The list continues.
| SMILES | Hsc70 ATP site | WNV protease inh | MT1-MMP reporter |
| --- | --- | --- | --- |
| COc1cccc(OC)c1C(=O)Nc1nc(N)n(-c2ccccc2)n1 | -2.3% | nt | i |
| CC(C(=O)Nc1ccc(Br)cc1C(=O)c1ccccc1)N1CCOCC1 (configuration not stated) | -0.9% | nt | i |
| CN1C(=O)C(C2c3ccccc3C(=O)N2Cc2ccc([N+](=O)[O-])cc2)C(=O)N(C)C1=O (configuration not stated) | -2.4% | nt | i |
| CCOC(=O)c1c(-c2ccc(OC)cc2)oc2ccc(OC(=O)N(C)C)cc12 | -2.7% | 0.31 | i |
| C=C(C)c1cccc(C(C)(C)NC(=O)NC2CN3CCC2CC3)c1 (configuration not stated) | -1.7% | -0.36 | i |
| Cc1ccc(Cl)cc1N1CCN(CCN)CC1 | -3.6% | 0.03 | i |
| CC(=NCc1cccnc1)c1c(O)n(Cc2ccccc2)c(=O)[nH]c1=O | -7.7% | -0.16 | i |
| CCn1c(C)c(C(=O)O)c2cc(OC)ccc21 | 1.6% | -0.04 | i |
| CCOC(=O)C1=C(N)OC2=C(C(=O)CC(C)(C)C2)C12C(=O)Nc1ccccc12 (configuration not stated) | -0.6% | -0.42 | i |
| CC(C)Sc1nnc([C@@H](N)Cc2c[nH]c3ccccc23)o1 | -2.1% | -0.59 | i |
| O=C(CCCC1=NS(=O)(=O)c2ccccc2N1)N1CCC2(CC1)OCCO2 | -2.3% | -1.3 | i |
| Cc1nn(C)c(C)c1P(=S)(c1c(C)nn(C)c1C)N(C)C | -4.3% | 0.94 | i |

Later entries
Second line of a record – Hsc70 ATP site	WNV protease inh	MT1-MMP reporter
COc1ccccc1-n1c(O)c(C=NC2CC2)c(=O)[nH]c1=O
    -7.9%	nt	i
CCCC(=O)c1c(O)[nH]c(=O)[nH]c1=O
    7.0%	-0.89	i
CCCN1CC(C)C(OC(C)=O)(c2ccccc2)CC1C (configuration not stated)
    3.6%	nt	i
CC(=O)[C@H]1CC[C@H]2[C@@H]3CC[C@H]4C[C@H](O)CC[C@]4(C)[C@H]3C(=O)C[C@]12C
    -3.8%	0.43	i
CC(=Nc1ccc2c(c1)CCC2)c1c(O)n(C)c(=O)n(C)c1=O
    5.9%	0.71	i
Cc1cc(N2CCOCC2)nc2ccc(NC(=O)CCC(=O)N3CCC4(CC3)OCCO4)cc12
    -1.4%	0.28	i
Cn1cccc1CNCCc1ccccc1F
    3.0%	-0.17	i
CC#CP(=O)(OCC)C(O)(c1ccccc1)C(F)(F)F (configuration not stated)
    11%	1.3	i
O=C(O)c1nonc1-c1nonc1C(=O)O
    2.9%	1	i
CCCS(=O)(=O)N1CCC(C(=O)N2CCC3(CC2)OCCO3)CC1
    0.8%	-0.64	i
CCCCCCN=Cc1c(O)n(C)c(=O)n(C)c1=O
    -5.0%	nt	i
CCOC(=O)N(C)c1ccc(C(O)(C(=O)OC)C(F)(F)F)cc1 (configuration not stated)
    1.3%	nt	i
Cc1ccc(Cn2nnnc2CN2CCC(n3nnc4cc(C)ccc43)CC2)cc1
    132%	-0.9	i
CCCCn1c(O)c(C(C)=Nc2cccc(C(=O)O)c2)c(=O)[nH]c1=O
    0.2%	-0.34	i
COc1ccc(CCNCc2ccc(OC)c(OC)c2OC)cc1
    -6.1%	nt	i

Single values from the results shown.
For Hsc70 ATP site, COc1ccc(CCNCc2ccc(OC)c(OC)c2OC)cc1 has the entry -6.1%
For WNV protease inh, Cc1cc(N2CCOCC2)nc2ccc(NC(=O)CCC(=O)N3CCC4(CC3)OCCO4)cc12 has the entry 0.28
For Hsc70 ATP site, O=C(O)c1nonc1-c1nonc1C(=O)O has the entry 2.9%

(listing goes on)
Second line of a record – Hsc70 ATP site	WNV protease inh	MT1-MMP reporter
CCOC(=O)C1CN(C)CCC1=O (configuration not stated)
    -2.0%	0.36	i
Cc1ccc2c(c1)C1CN(C)CCC1N2S(=O)(=O)c1ccccc1 (configuration not stated)
    -4.6%	-0.01	i
O=C1c2ccccc2C2(c3ccc(Cl)cc3)NCCN12 (configuration not stated)
    3.2%	0.27	i
CCCCn1c(N)c(C(=O)NCCN2CCOCC2)c2nc3ccccc3nc21
    1.5%	0.36	i
COc1ccc(C(=O)CC2(CC(=O)c3ccc(OC)cc3)C(=O)N(C)C(=O)N(C)C2=O)cc1
    3.5%	nt	i
CN1C(=O)C(Cc2ccsc2)C(=O)N(C)C1=O
    -1.7%	0.66	i
CC(=NCc1ccc2c(c1)OCO2)c1c(O)[nH]c(=O)[nH]c1=O
    7.9%	-1.1	i
c1ccc2c(c1)OCC(C1=NCCN1)O2 (configuration not stated)
    3.9%	0.09	i
NCCc1ccc(O)cc1
    1.9%	0.37	i
Cn1c(C(=O)N2CCC(C(=O)N3CCC4(CC3)OCCO4)CC2)cc2sccc21
    6.9%	-0.02	i
COc1ccc(-c2cc(C(F)(F)F)n3nc(C(=O)N4CCC5(CC4)OCCO5)cc3n2)cc1OC
    -3.3%	-0.04	i
Cc1cc(OC(=O)CCNC(=O)OC(C)(C)C)c2c3c(c(=O)oc2c1)CCC3
    -5.9%	-0.4	i
c1cncc(CNC2=NCCCCC2)c1
    4.6%	-0.78	i
Clc1cnc(Oc2ccc(Oc3ncc(Cl)cc3Cl)cc2)c(Cl)c1
    -20%	nt	i
O=C(COc1ccc2ccccc2c1)N1CCN(C2CCN(Cc3ccccc3)CC2)CC1
    0.6%	0.23	i
O=c1c2ccccc2nc(-c2cccs2)n1-c1cnccn1
    5.8%	-0.66	i
Cc1ccc(CN2CC3CC(C2)c2cccc(=O)n2C3)cc1 (configuration not stated)
    -3.4%	0.87	i
CCCc1[nH]nc2c1C1(C(=O)N(Cc3ccccc3)c3ccccc31)C(C(=O)OC)=C(N)O2 (configuration not stated)
    -1.4%	nt	i
O=C1NC(=O)C(CCc2ccncc2)(Cc2ccc3c(c2)OCO3)C(=O)N1CCc1ccccc1 (configuration not stated)
    1.7%	nt	i
Cc1cc(O)c(CN2CCN(c3ccccc3)CC2)cc1C
    6.5%	nt	i
O=c1c2ccccc2nc(-c2ccco2)n1-c1ccccn1
    -0.8%	0.68	i
CC(C)(C)n1c(O)c(C=Nc2ccc3c(c2)CCC3)c(=O)[nH]c1=O
    2.8%	-0.34	i
CCOC(=O)C1=C(C)N(C)C2(C)CC1c1ccccc1O2 (configuration not stated)
    -6.4%	0.49	i
COc1ccc(C2SCC(=O)Nc3c2c(=O)[nH]n3C2CCCCCC2)cc1 (configuration not stated)
    1.6%	0.68	i
Cc1sc2nc(COC(=O)Cc3ccccc3)[nH]c(=O)c2c1C
    3.6%	nt	i
O=C(C1CCC(=O)N1C1CCCCC1)N1CCC2(CC1)OCCO2 (configuration not stated)
    -3.4%	-0.37	i
Oc1ccc(C2NCc3ccccc3-n3cccc32)cc1Cl (configuration not stated)
    -2.4%	0.62	i
Cc1c2cnn(CC(=O)N3CCC4(CC3)OCCO4)c(=O)c2c(C)n1Cc1ccccc1
    -4.0%	0.21	i
Cc1nc2c(-c3ccc(F)cc3)c(C)nn2c(C)c1CCC(=O)N1CCC2(CC1)OCCO2
    3.1%	-0.55	i
CC(=O)Nc1cc(C(=O)N2CCC3(CC2)OCCO3)ccc1Sc1ccc(C)cc1
    2.7%	nt	i
CCC(=NCCCN1CCOCC1)c1c(O)n(Cc2ccccc2)c(=O)[nH]c1=O
    -1.2%	0.7	i

Assay outcomes from PubChem BioAssay.

An excerpt; rates above refer to the full screens.
